Screens as filed in PubChem.
RE007 growth inh = less growth of the S. pombe RE007 Vpr strain | S. pombe RE007 Vpr strain, BacTiter-Glo ATP luminescence, 24 h; control for the full effect not named in the record | Potency, µM (doses to about 92.2 µM), for the others: at the highest dose activity change, negative = less growth | actives 0.21% (n = 360,000) | AID 651644; active = well fitted falling curve with a large enough effect; inconclusive = small, poorly fitted or top-dose-only effect; inactive = no such curve, though single readings can be large or run the other way;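 further: on the % scale 0 is the no-effect control and ±100 the full control effect; nearly all actives have a fitted effect of over 50% in size; the assay follows cell death caused by Vpr and the record does not say whether a fall means rescue or toxicity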
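Fission yeast RE007 carrying one integrated HIV-1 vpr copy, seeded at OD 0.01 in PMG+AL medium with 23 nL pinned compound. Grown 24 h at 30 degrees; viability read by BacTiter-Glo luminescence after 5 min.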
Cruzain inh Det = blocks cruzain activity in presence of Triton detergent. P25779. purified cruzain, Z-FR-AMC fluorescence, 0.01% Triton. Potency, µM, for inactives: max response, negative = inhibition, hits mostly inhibitors. actives 0.43% (n = 200,000). AID 1478; active means well fitted curve in the direction sought with a large enough effect; inconclusive means small, poorly fitted or top-dose-only effect, or another doubt; inactive means no such curve, though single readings can be large; an effect the other way counts as inactive or inconclusive;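 further: plate controls were neutral wells for no effect and buffer without enzyme for full effect; nearly all actives have a fitted effect of over 40% in size; top concentration of the series not given in the record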
Target sequence (P25779 123-467 limits assumed): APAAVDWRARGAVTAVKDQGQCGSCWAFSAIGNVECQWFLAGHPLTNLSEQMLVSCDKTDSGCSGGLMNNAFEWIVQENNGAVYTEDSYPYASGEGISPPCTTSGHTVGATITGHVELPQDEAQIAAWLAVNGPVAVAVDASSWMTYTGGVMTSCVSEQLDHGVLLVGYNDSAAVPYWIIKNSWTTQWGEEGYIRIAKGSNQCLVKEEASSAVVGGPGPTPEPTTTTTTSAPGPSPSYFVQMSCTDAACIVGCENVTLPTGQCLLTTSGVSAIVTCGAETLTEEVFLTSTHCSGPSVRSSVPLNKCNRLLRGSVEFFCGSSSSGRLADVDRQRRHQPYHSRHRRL
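Cysteine protease activity tested under reducing, mildly acidic conditions (100 mM sodium acetate pH 5.5, 5 mM DTT) plus 0.01% Triton X-100. Cruzain 1.5 nM; substrate Z-FR-AMC 2 uM; 15 min compound preincubation at room temperature.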
NS1 inh = influenza NS1 inhibition | actives 0.4% (n = 270,000) | S. cerevisiae slowed by influenza A NS1, growth recovery by OD600 | AID 2326 | Potency, µM (doses to about 46.1 µM), without a hit: top-dose activity, positive = more growth; further: actives are rising curves; nearly all actives have a fitted effect of over 50% in size
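In this qHTS, NS1 from influenza A is expressed in budding yeast, where it slows growth. Cells are switched from glucose to 2% galactose medium (pH 6.0, -URA), treated with compound, and growth recovery is read at OD600.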
Cruzain noTriton = inhibitors of Trypanosoma cruzi cruzain without detergent; P25779; purified cruzain, Z-FR-AMC fluorescence, no detergent; Potency, µM, for the others: max response, negative = inhibition, actives largely listed as inhibitors; actives 2.3% (n = 200,000); AID 1476; active means well fitted curve in the direction sought with a large enough effect; inconclusive means small, poorly fitted or top-dose-only effect, or another doubt; inactive means no such curve, though single readings can be large; an effect the other way counts as inactive or inconclusive;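 further: plate controls were enzyme without inhibitor for no effect and buffer without enzyme for full effect; nearly all actives have a fitted effect of over 40% in size; top concentration of the series not given in the record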
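Detergent-free condition (0.00005% Triton X-100) in acetate buffer pH 5.5 with DTT. 1.5 nM enzyme and compound were pre-mixed 15 min, then 2 uM Z-FR-AMC substrate added; reaction progress from fluorescence change between first and third reads (60 s).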
LASV entry inh = Lassa virus entry inhibition; Lassa virus pseudotype entry inhibition, cell reporter; control for the full effect not named in the record; Potency, µM (titrated, usually from 37.9 µM), for inactives: at the top dose activity change, negative = inhibition, most hits filed as inhibitors; actives 1.2% (n = 300,000); active means well fitted inhibition curve with a large enough effect; inconclusive means small, poorly fitted or top-dose-only effect, or effect the other way; inactive means flat fitted curve, though single readings scatter; tested in HEK293 cells; further: on the % scale 0 is the no-effect control and ±100 the full control effect; nearly all actives have a fitted effect of over 50% in size; luciferase read-out
StopGo reporter = lowers the luciferase signal of an FMDV 2A StopGo reporter; human cells with a luciferase reporter of 2A StopGo recoding; control for the full effect not named in the record; Potency, µM (series often up to 57.9 µM), inactives show at the top dose signal change, negative = less light; actives 1.2% (n = 410,000); active = well fitted falling curve with a large enough effect; inconclusive = small, poorly fitted or top-dose-only effect; inactive = no such curve, though single readings can be large or run the other way; tested in HEK293T cells; further: on the % scale 0 is the no-effect control and ±100 the full control effect; nearly all actives have a fitted effect of over 45% in size; luciferase light after 4 h
MARV entry inh = blocks Marburg virus binding to or entry into cells. Marburg virus pseudotyped entry inhibition, cell reporter; control for the full effect not named in the record; about a third of the inactives were read at about 46 µM. Potency, µM (highest dose often 37.8 µM), for the others: at the highest dose activity change, negative = inhibition, hits mostly inhibitors. actives 1.8% (n = 300,000); active = well fitted inhibition curve with a large enough effect; inconclusive = small, poorly fitted or top-dose-only effect, or effect the other way; inactive = flat fitted curve, though single readings scatter; tested in HEK293 cells; about a fifth of its hits are not listed in these tables; further: on the % scale 0 is the no-effect control and ±100 the full control effect; luciferase read-out
SARS PLP yeast = inhibitors of SARS-CoV papain-like protease in yeast; S. cerevisiae expressing SARS-CoV PLpro, growth rescue; control for the full effect not named in the record; Potency, µM (top dose mostly 32.9 µM), for the others: top-dose activity, positive = growth rescue; actives 0.19% (n = 330,000); AID 485353; further: 0% is about no effect; nearly all actives have a fitted effect of over 55% in size; growth read by luminescence after 48 h
* = called active by the depositor; ? = inconclusive; . = no result given; & = joins results of further samples; [ ] = dose if it differs, or a comment. Unless noted, the call rests on the fitted dose curve; in most records, active means well fitted rising curve with a large enough effect; inconclusive means small, poorly fitted or top-dose-only effect; inactive means no such curve, though single readings can be large or run the other way. Potency means the concentration at half of the fitted maximal effect.

SMILES	RE007 growth inh	Cruzain inh Det	NS1 inh	Cruzain noTriton	LASV entry inh	StopGo reporter	MARV entry inh	SARS PLP yeast
Cc1ccccc1-n1cc(CNC(=O)CCc2nnc(CCc3ccccc3)o2)cn1	7%	.	-1%	.	19%	18%	23%[46.1 µM]	1%
Cc1nc(Cc2ccc(OC(C)C)cc2)[nH]c(=O)c1CC(=O)O	22%	.	3%	.	-1%	4%	1%[46.1 µM]	0%
Cc1nc(C(F)(F)F)c(C(=O)N/N=C(\N)c2cccnc2)s1	9%	.	-1%	.	20%[46.1 µM]	-1%	2%[46.1 µM]	1%
CCc1nc(SCc2ccc(C(=O)OC)o2)c2c(=O)n(C)c(=O)n(C)c2n1	3%	-7.4%	-21%	-6%	.	?	.	-13%
Cc1cccn2cc(-c3cccc(S(=O)(=O)N4CCCCC4)c3)nc12	-8%	.	-28%	.	.	23%	.	0%
COc1ccc(-c2nnc(SCC(=O)Nc3ccc(Cl)cc3)s2)cc1	.	-1.4%	.	-14%	-4%[46.1 µM]	14%	.	.
O=C(NN1C(=O)C2C3CCC(O3)C2C1=O)c1ccc(Cl)cc1 (stereo not drawn)	7%	-0.6%	26%	1%	23%	19%	-5%	8%
CC(OC(=O)c1cc(S(=O)(=O)N2CCOCC2)ccc1F)C(=O)NCc1ccc2c(c1)OCO2 (stereo not drawn)	-18%	.	.	.	12%	0%	2%	-1%
CCN(CC)c1ccc(CC(=O)NC(C)Cc2ccccc2)cc1 (stereo not drawn)	-5%	2.2%	-12%	3%	-17%	-15%	-1%	-1%
O=c1c(Cc2ccc(Cl)cc2)c(O)ccn1Cc1ccncc1	-11%	.	12%	.	.	-8%	.	1%
CC(=O)O[C@H]1CCC2C3CCC4=CC(=O)CCC4=C3C=C[C@@]21C (stereo partly drawn)	-18%	.	1%	.	1%	-15%	-15%	0%
Cc1cc(C)c(Cn2c3ccccc3c3cnn(CC(=O)NCCc4ccccc4)c(=O)c32)c(C)c1	.	-1.5%	.	11%	2%[46.1 µM]	0%	0%[46.1 µM]	.
N#Cc1cnn(-c2ccc(F)cc2)c1N	-8%	.	4%	.	9%	9%	7%[46.1 µM]	1%
Cc1nn(CCN)c(C)c1Cl	7%	.	2%	.	.	-10%	.	0%
CCOc1ccc(S(=O)(=O)N2CCN(S(=O)(=O)c3ccc(OCC)cc3)C(C)C2)cc1 (stereo not drawn)	6%	3.7%	2%	25%	-13%	8%	-29%	?
Cc1cccc(NC(=O)c2ccc(NS(=O)(=O)c3cccc4cccnc34)cc2)c1	13%	.	.	.	0%[46.1 µM]	0%	0%[46.1 µM]	.
COC(=O)c1ccc(CNC(=O)Cn2nnnc2CN(C)C(C)C)cc1	4%	.	-9%	.	0%[46.1 µM]	-18%	22%[46.1 µM]	5%
CC1CCCN(S(=O)(=O)c2ccc(S(=O)(=O)N3CCCC3)cc2)C1 (stereo not drawn)	3%	.	5%	.	-11%	4%	0%[46.1 µM]	3%
CCOc1ccccc1Oc1cn[nH]c1-c1ccc(OC)cc1O	-2%	-10%	-220%	-16%	?	?	?	-38%
COc1cc(NC(=O)C2CCN(c3nnc(C)c4c(C)n(-c5ccccc5)nc34)CC2)cc(OC)c1	.	-6.3%	.	19%	-11%[46.1 µM]	-13%	.	.
CCOC(=O)c1cnc2ccc(OC)cc2c1Nc1ccc(OCc2ccccc2Cl)cc1	.	-6.6%	.	-8%	?	?	.	.
CCC(=O)Nc1cccc(-c2cn3cccc(C)c3n2)c1	-14%	.	3%	.	.	43%[activator]	.	0%
Cn1c(N)c(N=O)c(=O)n(C)c1=O	14%	.	4%	.	0%[46.1 µM]	-23%	1%[46.1 µM]	0%
CCc1ccc(NC(=O)COn2nnc3ccc(S(=O)(=O)N(C)C)cc32)cc1	16%	-3.4%	4%	15%	?	-27%	?	3%
Cc1ccc(S(=O)(=O)N2CCCCC2)cc1NC(=O)CNc1ccc(C(F)(F)F)cc1	6%	.	.	.	?	-4%	?	1%
COc1ccc(C(Cl)=C(c2ccc(OC)cc2)c2ccc(OC)cc2)cc1	10%[18.4 µM]	-4.6%&-2.7%&1.3%&-1.5%	-10%	20µM*	0%	-23%&-19%	-39%	-2%
CS(=O)(=O)N1CCC(C(=O)NCCc2ccccc2)CC1	10%	5.4%	2%	-2%	8%	.	24%	2%
Cc1ccccc1Cn1ccc(NC(=O)c2nc3ncccn3n2)n1	-19%	-5.2%	-10%	14%	2%	11%	0%	4%
CCC(=O)Nc1ccc(S(=O)(=O)NCc2ccco2)cc1	18%	0.9%	8%	-1%	-14%	11%	4%	1%
CC(=O)N1CCN(C(=O)c2cc(S(=O)(=O)N(C)Cc3ccccc3)ccc2Cl)CC1	-10%	.	.	.	4%	-11%	-14%	3%

Random excerpt: two compounds from above
SMILES	RE007 growth inh	Cruzain inh Det	NS1 inh	Cruzain noTriton	LASV entry inh	StopGo reporter	MARV entry inh	SARS PLP yeast
CCN(CC)c1ccc(CC(=O)NC(C)Cc2ccccc2)cc1 (stereo not drawn)	-5%	2.2%	-12%	3%	-17%	-15%	-1%	-1%
Cc1ccc(S(=O)(=O)N2CCCCC2)cc1NC(=O)CNc1ccc(C(F)(F)F)cc1	6%	.	.	.	?	-4%	?	1%

(listing goes on)
SMILES	RE007 growth inh	Cruzain inh Det	NS1 inh	Cruzain noTriton	LASV entry inh	StopGo reporter	MARV entry inh	SARS PLP yeast
Cc1ccc(S(=O)(=O)N2CCCC2CNC(=O)C(=O)NCc2ccccn2)cc1 (stereo not drawn)	17%	.	.	.	-4%	-5%	5%[46.1 µM]	2%
CCOC(=O)N1CCN(c2c(NCc3ccc(Cl)cc3)c(=O)c2=O)CC1	9%	8.0%	5%	-12%	.	-24%	.	3%
Cc1cccc(N(C(=O)c2csnn2)C(C(=O)NC2CCCCC2)c2ccccn2)c1C (stereo not drawn)	33%	.	11%	.	0%[46.1 µM]	3%	8%[46.1 µM]	7%
CCCCc1c(C)nc2ccc(OC)cc2c1SCCC(=O)O	10%	-1.4%	-3%	-12%	5%	-21%	3%[46.1 µM]	2%
CCOc1ccc(Br)cc1C(=O)N/N=C/c1ccc([N+](=O)[O-])cc1	-16%	.	.	.	-41%	-21%	?	-2%
O=C(NCC1CC1)c1ccc(Oc2cc(Cl)cc(Cl)c2)o1	11%	.	-37%	.	.	-15%	.	-3%
OCCC1CN(Cc2ccc3c(c2)CCO3)CCN1Cc1ccc(F)cc1 (stereo not drawn)	4%	.	-2%	.	.	-17%	.	0%
O=C(NCCCN1CCCCCC1)c1ccc(CS(=O)(=O)Cc2ccccc2F)o1	-9%	?	-31%	12%	8%	-15%	-8%	11%
CC(C)OC(=O)c1ccc(Cn2nnc3sc4c(c3c2=O)CCCC4)cc1	.	-2.7%	.	4%	6%[46.1 µM]	-11%	?	.
O=C(N/N=C/C1C(c2ccccc2)C1(Cl)Cl)c1cccc(Br)c1 (stereo not drawn)	-2%	-4.0%	-35%	?	3%	-7%	16%	-19%
O=C(NCc1nnnn1-c1ccc(F)c(F)c1)c1cc2ccccc2o1	-25%	.	.	.	1%	-12%	17%	-6%
O=C(O)CN(Cc1ccccc1)S(=O)(=O)c1ccc(F)cc1	-12%	0.8%	-11%	14%	2%	-18%	-17%	3%
Cc1cnc(C(=O)Nc2ccc(C(C)C)cc2)cn1	1%	.	.	.	?	12%	?	-3%
COc1ccc(/C=C/C(=O)Nc2sc(Cc3ccccc3)c(C)c2C(N)=O)cc1	9%	-11%	3%	16µM*	?	-22%	2%	6%
Cc1ccccc1-c1coc2cc(O)ccc2c1=O	-3%	3.5%	-46%	-1%	6%	5%	?	1%

The last two entries of the part before lead into the next:
SMILES	RE007 growth inh	Cruzain inh Det	NS1 inh	Cruzain noTriton	LASV entry inh	StopGo reporter	MARV entry inh	SARS PLP yeast
COc1ccc(/C=C/C(=O)Nc2sc(Cc3ccccc3)c(C)c2C(N)=O)cc1	9%	-11%	3%	16µM*	?	-22%	2%	6%
Cc1ccccc1-c1coc2cc(O)ccc2c1=O	-3%	3.5%	-46%	-1%	6%	5%	?	1%
CCCc1cc(=O)oc2cc(OCC(=O)NCCCn3ccnc3)ccc12	-11%	.	0%	.	?	6%	12%[46.1 µM]	16%
CC(=O)OCCN(Cc1ccccc1)Cc1ccc2c(c1)OCO2	-22%	0.5%	-1%	-5%	4%	0%	-8%	-1%
O=C(O)CSc1c(-c2cccs2)[nH]c2ccccc12	-12%	-3.1%	-8%	4%	0%	9%	8%	-10%
Cc1ccc(N)c(C)c1	11%	0.5%	.	-12%	.	0%	.	-3%
CCc1c(C)nc(SCc2cccnc2)[nH]c1=O	2%	.	1%	.	.	9%	.	-6%
COCn1c(=O)c2c(nc(SC3=NCCS3)n2Cc2ccccc2C)n(COC)c1=O	15%	-0.3%	12%	2%	?	?	?	8%
Cc1cc(C)cc(NC(=O)CCc2c(C)nn(-c3ccc(N4CCCC4)nn3)c2C)c1	.	-2.7%	.	23%	-1%[46.1 µM]	8%	.	.
Nc1c(C(=O)NCCN2CCOCC2)c2nc3ccccc3nc2n1Cc1ccco1	-4%	-6.6%	7%	7%	-3%	-21%	1%	1%
Cc1ccc(/C=N/N=C2\SCC(=O)N2CC2CC2)cc1	10%	.	-2%	.	-1%	1%	-5%	-1%
COc1cccc2cc(/C(C)=N/NC(=O)c3ccco3)oc12	2%	.	.	.	-5%[46.1 µM]	-11%	?	-3%
CC(C)n1cc(/C=C2/SC(=O)N(CC(=O)N3CCCC3)C2=O)c2ccccc21	19%	-4.8%	?	?	0%	-28%	6%	9%
COc1cccc(Cn2c(CNC(=O)c3cc([N+](=O)[O-])ccc3Cl)nc3cccnc32)c1	.	-14%	.	-20%	-18%[46.1 µM]	-25%	.	.
CCCc1cc(=O)[nH]c(SCc2nc(-c3ccccc3F)no2)n1	.	4.1%	.	9%	12%[46.1 µM]	-7%	.	.
O=C1C2CCCN2C(=O)N1CCCN1CCN(c2cccc(Br)c2)CC1 (stereo not drawn)	0%	.	17%	.	.	-15%	.	5%
